From PubChem
NS1 function inh: qHTS Assay for Inhibitors of Influenza NS1 Protein Function | S. cerevisiae slowed by influenza A NS1, growth recovery by OD600 | Potency, µM (top dose mostly 46.1 µM), for the others: top-dose activity, positive = more growth | actives 0.4% (n = 270,000) | AID 2326, 2010; further: actives are rising curves; nearly all actives have a fitted effect of over 50% in size
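OD600 was taken as the measure of yeast growth restored by compound in an NS1-expressing S. cerevisiae strain. Cells had been washed out of glucose medium and diluted 1:100 into galactose -URA medium, pH 6.0.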
2A StopGo: High Throughput Screening for Foot and Mouth Disease Virus Antivirals; human cells with a luciferase reporter of 2A StopGo recoding; control for the full effect not named in the record; Potency, µM (titrated, usually from 57.9 µM), for inactives: at the top dose signal change, negative = less light; actives 1.2% (n = 410,000); AID 1159524, 2015; active = well fitted falling curve with a large enough effect; inconclusive = small, poorly fitted or top-dose-only effect; inactive = no such curve, though single readings can be large or run the other way; tested in HEK293T cells; further: on the % scale 0 is the no-effect control and ±100 the full control effect; nearly all actives have a fitted effect of over 45% in size; luciferase light after 4 h
Cruzain inh Det: qHTS Assay for Promiscuous and Specific Inhibitors of Cruzain (with detergent); purified cruzain, Z-FR-AMC fluorescence, 0.01% Triton; Potency, µM, inactives show max response, negative = inhibition, hits mostly inhibitors; actives 0.43% (n = 200,000); active means well fitted curve in the direction sought with a large enough effect; inconclusive means small, poorly fitted or top-dose-only effect, or another doubt; inactive means no such curve, though single readings can be large; an effect the other way counts as inactive or inconclusive;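 further: plate controls were neutral wells for no effect and buffer without enzyme for full effect; nearly all actives have a fitted effect of over 40% in size; top concentration of the series not given in the record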
Target sequence (P25779 123-467 limits assumed): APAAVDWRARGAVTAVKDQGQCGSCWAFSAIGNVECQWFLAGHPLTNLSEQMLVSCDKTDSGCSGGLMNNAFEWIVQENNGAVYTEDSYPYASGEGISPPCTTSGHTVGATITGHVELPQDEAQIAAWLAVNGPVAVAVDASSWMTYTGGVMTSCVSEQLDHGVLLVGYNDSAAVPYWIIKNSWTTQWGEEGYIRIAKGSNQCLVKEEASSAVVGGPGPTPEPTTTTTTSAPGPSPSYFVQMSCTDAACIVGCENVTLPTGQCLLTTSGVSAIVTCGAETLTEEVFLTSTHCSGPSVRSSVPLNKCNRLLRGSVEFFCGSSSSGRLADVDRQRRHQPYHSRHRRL
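Steps: dispense cruzain (1.5 nM final) in acetate buffer pH 5.5 with DTT and 0.01% Triton X-100; pin-transfer compounds; incubate 15 min RT; add Z-FR-AMC (2 uM final); read fluorescence every 30 s, using the 60 s intensity change.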
Marburg entry inh: qHTS for inhibitors of binding or entry into cells for Marburg Virus. Marburg virus pseudotyped entry inhibition, cell reporter; control for the full effect not named in the record; about a third of the inactives were read at about 46 µM. Potency, µM (top dose mostly 37.8 µM), inactives show top-dose activity change, negative = inhibition, most hits filed as inhibitors. actives 1.8% (n = 300,000). AID 540276, 2011; active = well fitted inhibition curve with a large enough effect; inconclusive = small, poorly fitted or top-dose-only effect, or effect the other way; inactive = flat fitted curve, though single readings scatter; tested in HEK293 cells; about a fifth of its hits are not listed in these tables; further: on the % scale 0 is the no-effect control and ±100 the full control effect; luciferase read-out
RE007 growth inh: qHTS Assay for Inhibitors of the HIV-1 protein Vpr | S. pombe RE007 Vpr strain, BacTiter-Glo ATP luminescence, 24 h; control for the full effect not named in the record | Potency, µM (highest dose often 92.2 µM), without a hit: at the top dose activity change, negative = less growth | actives 0.21% (n = 360,000) | AID 651644, 2012; active = well fitted falling curve with a large enough effect; inconclusive = small, poorly fitted or top-dose-only effect; inactive = no such curve, though single readings can be large or run the other way;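 further: on the % scale 0 is the no-effect control and ±100 the full control effect; nearly all actives have a fitted effect of over 50% in size; the assay follows cell death caused by Vpr and the record does not say whether a fall means rescue or toxicity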
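Fission yeast strain RE007, carrying one chromosomally integrated HIV-1 vpr copy, was seeded at OD 0.01 in PMG+AL medium with 23 nL pinned compound. After 24 h at 30 °C and 99% humidity, viability was read by BacTiter-Glo luminescence.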
SARS PLpro yeast: qHTS of Yeast-based Assay for SARS-CoV PLP. Potency, µM (top dose mostly 32.9 µM), without a hit: at the top dose activity, positive = growth rescue. S. cerevisiae expressing SARS-CoV PLpro, growth rescue; control for the full effect not named in the record. AID 485353, 2010. actives 0.19% (n = 330,000); further: 0% is about no effect; nearly all actives have a fitted effect of over 55% in size; growth read by luminescence after 48 h
Lassa entry inh: qHTS for Inhibitors of binding or entry into cells for Lassa Virus; Lassa virus pseudotype entry inhibition, cell reporter; control for the full effect not named in the record; Potency, µM (series often up to 37.9 µM), for inactives: top-dose activity change, negative = inhibition, actives largely listed as inhibitors; actives 1.2% (n = 300,000); AID 540256, 2011; active means well fitted inhibition curve with a large enough effect; inconclusive means small, poorly fitted or top-dose-only effect, or effect the other way; inactive means flat fitted curve, though single readings scatter; tested in HEK293 cells; further: on the % scale 0 is the no-effect control and ±100 the full control effect; nearly all actives have a fitted effect of over 50% in size; luciferase read-out
Cruzain noTriton: qHTS Assay for Promiscuous and Specific Inhibitors of Cruzain (without detergent) | AID 1476, 2009 | actives 2.3% (n = 200,000) | Potency, µM, inactives show max response, negative = inhibition, actives largely listed as inhibitors | Cruzipain (Trypanosoma cruzi), P25779 | purified cruzain, Z-FR-AMC fluorescence, no detergent; active means well fitted curve in the direction sought with a large enough effect; inconclusive means small, poorly fitted or top-dose-only effect, or another doubt; inactive means no such curve, though single readings can be large; an effect the other way counts as inactive or inconclusive;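 further: plate controls were enzyme without inhibitor for no effect and buffer without enzyme for full effect; nearly all actives have a fitted effect of over 40% in size; top concentration of the series not given in the record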
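Detergent-free condition (0.00005% Triton X-100) in acetate buffer pH 5.5 with DTT. 1.5 nM enzyme and compound were pre-mixed 15 min, then 2 uM Z-FR-AMC substrate added; reaction progress from fluorescence change between first and third reads (60 s).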
Active calls of the source: *; ? = inconclusive; . = not tested or not shown; & = joins results of further samples; [ ] = remark or other dose. Unless noted, the call rests on the fitted dose curve; in most records, active means well fitted rising curve with a large enough effect; inconclusive means small, poorly fitted or top-dose-only effect; inactive means no such curve, though single readings can be large or run the other way. Potency means the concentration at half of the fitted maximal effect.

SMILES	NS1 function inh	2A StopGo	Cruzain inh Det	Marburg entry inh	RE007 growth inh	SARS PLpro yeast	Lassa entry inh	Cruzain noTriton
O=C1CC[C@@H](CN(Cc2ccccn2)Cc2nc(Cc3cccc(C(F)(F)F)c3)no2)N1	-3%	-9%	.	.	5%	0%	.	.
COc1cccc(CC(NC(C)=O)C(=O)NC2CCN(S(=O)(=O)c3ccc(C)cc3)CC2)c1OC (stereo not given)	1%	?	.	4%[46.1 µM]	-1%	0%	7%[46.1 µM]	.
O=S(=O)(c1ccc(Cl)cc1)c1nnn2c1nc(NC1CCCCC1)c1sccc12	.	?	-3.9%	.	.	.	-1%[46.1 µM]	5%
Cn1c(=O)c2c(ncn2CC(=O)OCC(=O)Nc2cc(Cl)ccc2C#N)n(C)c1=O	.	-1%	.	4%[46.1 µM]	9%	1%	17%[46.1 µM]	.
COc1ccc2cc(C(=O)NCC3CCCO3)[nH]c2c1 (stereo not given)	0%	66%[activator]	.	?	-7%	0%	14%[46.1 µM]	.
CCC1CCCCN1CCNC(=O)c1[nH]c(C)c(C(C)=O)c1C (stereo not given)	0%	-11%	3.4%	10%	-3%	1%	16%	2%
CCOc1ccc(S(=O)(=O)N(C)CC(=O)NCc2ccccn2)cc1	-11%	4%	.	-8%[46.1 µM]	-11%	-4%	.	.
CCCCS(=O)(=O)CC(COc1ccccc1)OC(=O)c1ccccc1 (stereo not given)	-28%	4%	0.4%	-2%	-21%	-2%	-1%	-3%
CN1CCN(S(=O)(=O)c2cccc(C(=O)NCCOc3ccccc3)c2)CC1	.	6%	.	-1%	-18%	-1%	14%	.
COc1ccc(CCNC(=O)c2c(O)nc3c(C)cccn3c2=O)cc1OC	.	-23%	-1.3%	0%[46.1 µM]	.	.	.	-9%
COc1cc(/C=N/N2C(C)CCCC2C)cc(OC)c1O (stereo not given)	?	-7%	.	.	4%	-1%	.	.
CCCc1nc2ccc(NC(=O)c3cccs3)cc2c(=O)n1Cc1ccc(Cl)cc1	19%	-17%	1.4%	2%	-5%	25%	-1%	5%
COc1ccccc1C1/C(=C(\O)c2ccc3c(c2)OCCO3)C(=O)C(=O)N1CCCn1ccnc1 (stereo not given)	-11%	-3%	.	?	-8%	-3%	9%[46.1 µM]	.
O=C(NCCCO)NC(=S)c1cccc2ccccc12	-3%	3%	.	-8%[46.1 µM]	?	2%	.	.
CC(C)(C)NC(=O)C1CCC(CNS(=O)(=O)c2cccc3nsnc23)CC1 (stereo not given)	-1%	-19%	.	26%[46.1 µM]	-14%	0%	5%[46.1 µM]	.
CCOC(=O)c1c(C)[nH]c(C=O)c1Cc1cccc(Cl)c1	-9%	0%	-7.9%	?	19%	4%	6.3µM*	-6%
c1ccc(-c2nc(N3CCCC3)nc3ccccc23)cc1	.	-24%	.	-2%[14.2 µM]	-13%	2%	1%	.
CN(CC(=O)Nc1ccc(S(=O)(=O)N2CCCC2)cc1)CC(=O)Nc1ccc(F)c(F)c1F	.	-22%	.	-18%[46.1 µM]	-9%	-1%	-26%	.
O=C1CCCc2nc(N3CCN(C(c4ccccc4)c4ccccc4)CC3)ncc21	-142%	22µM*	-3.4%	?	-15%	-29%	?	-8%
O=c1cc(N2CCCCC2)c(-c2ccccc2)nn1Cc1ccc(Cl)cc1Cl	-30%	?	-1.0%	?	-4%	-18%	?	-7%
COc1cccc(N=CC=C2OC(C)(C)C(C)(C)O2)c1	.	13%	.	0%[46.1 µM]	-4%	2%	-1%[46.1 µM]	.
O=C(COc1ncnc2ccccc12)NC1CCS(=O)(=O)C1 (stereo not given)	1%	9%	2.7%	19%[46.1 µM]	11%	4%	9%	8%
CCCn1c(SCC(=O)N2CCN(S(=O)(=O)c3ccc(Cl)cc3)CC2)n[nH]c1=O	-4%	-28%	-6.9%	-8%[46.1 µM]	-1%	1%	-6%	11%
O=C(c1ccco1)N1CCN(c2ncnc3c2[nH]c2ccccc23)CC1	-7%	.	-7.0%	.	.	8%	.	-7%
Cc1ccc(/C=C(\NC(=O)c2ccc(C)cc2)c2nc(=S)[nH][nH]2)cc1	-71%	-15%	-19%	-5%	-8%	-18%	.	-5%
More structures follow:
SMILES	NS1 function inh	2A StopGo	Cruzain inh Det	Marburg entry inh	RE007 growth inh	SARS PLpro yeast	Lassa entry inh	Cruzain noTriton
COc1ccc(Cl)cc1NC(=O)CCC(=O)c1ccc(C)cc1	.	-3%	-1.6%	.	.	.	28%[46.1 µM]	5%
Cc1cc(NC(=O)COc2ccc(C(C)(C)C)cc2)no1	-7%	8%	.	17%[46.1 µM]	-2%	-3%	19%	.
Cc1ccc(NC(=O)CN2CCCC2)cc1	-1%	-9%	.	.	-1%	2%	.	.
CCOc1ccc(OCCCC(=O)NCCOc2ccccc2OC)cc1	-18%	-23%	.	1%[46.1 µM]	-11%	-4%	-4%[46.1 µM]	.
CCCCn1c(=O)c(C(C)=O)c(O)c2ccccc21	-42%	-19%	.	-14%[46.1 µM]	-24%	-2%	-4%[46.1 µM]	.
CCCCn1c(N)c(N(CCOC)C(=O)CCNC(=O)c2ccc(Cl)cc2)c(=O)[nH]c1=O	.	-1%	.	-12%[46.1 µM]	14%	0%	1%	.
CSc1ncc(Cl)c(C(=O)N(Cc2ccccc2Cl)C2CCS(=O)(=O)C2)n1 (stereo not given)	.	-14%	0.9%	-2%[46.1 µM]	.	.	28%[46.1 µM]	16%
O=C(COC(=O)/C=C/c1ccccc1)NNC(=O)c1ccccc1F	.	31%[activator]	.	1%	-8%	-3%	6%	.
Cc1c(Cl)cccc1NC(=S)N1CCN(C(=O)c2ccco2)CC1	23%	-27%	.	?	0%	3%	?	.
Cc1cc(F)ccc1S(=O)(=O)N1CCCCC1CCNC(=O)C(=O)NCCN1CCOCC1 (stereo not given)	.	-13%	.	-13%	-2%	5%	-8%	.
N#C/C(=C\c1c(N2CCCCCC2)nc2ccccn2c1=O)C(N)=O	5%	-13%	.	?	-5%	0%	-19%	.
O=[N+]([O-])c1ccc(CN2CCN(c3ncccn3)CC2)cc1	6%	-13%	.	.	-12%	1%	.	.
CC(=O)N1c2c(cc(Br)cc2S(=O)(=O)N2CCN(c3ccccc3)CC2)CC1C (stereo not given)	.	?	-3.7%	-16%[46.1 µM]	.	.	-29%[46.1 µM]	?
COCCn1nnnc1C(c1cc2cc(OC)ccc2[nH]c1=O)N1CCC(Cc2ccccc2)CC1 (stereo not given)	-46%	-17%	-8.0%	.	-5%	-2%	.	?
CC(C)NCC(O)COC1C2CC3CC(C2)CC1C3 (stereo not given)	3%	-3%	.	21%[46.1 µM]	-10%	0%	-7%[46.1 µM]	.
CN(CCCC1CCCC1)C(=O)c1cc(COc2ccc(F)c(F)c2)on1	-11%	-13%	.	.	1%	10%	.	.
Cc1cc(S(=O)(=O)NCCCN2CCOCC2)c(C)cc1Cl	3%	13%	.	35%	-5%	18%	?	.
CCN(CC)S(=O)(=O)c1cc(C(=O)n2cccn2)c(Cl)cc1Cl	-7%	.	-1.7%	13%	-6%	-6%	15%	-2%
COc1ccc(CNC(=O)C(=O)NCC2OCCN2S(=O)(=O)c2ccc(F)cc2)cc1 (stereo not given)	-11%	-5%	.	-7%	-15%	-5%	-4%	.
CCN1CCCC1CNC(=O)C1c2ccccc2C(=O)N(CCOC)C1c1ccc(F)cc1 (stereo not given)	-2%	-10%	5.0%	-16%&-16%	9%	2%	-12%	9%
CCN(Cc1ccc(O)cc1)CC1CCCN(CCc2cccc(F)c2)C1 (stereo not given)	-9%	-3%	.	.	-14%	1%	.	.
CC(=O)c1ccc(S(=O)(=O)NC2CC(=O)N(c3ccc4c(c3)OCCO4)C2)cc1 (stereo not given)	.	-14%	.	11%[46.1 µM]	20%	-3%	-2%	.
O=C(c1ccncc1)N1CCN(S(=O)(=O)c2ccccc2Br)CC1	.	-4%	.	-8%	14%	-3%	-1%	.
COc1ccccc1N1CCN(C(=O)c2c(C)oc3ncn(C)c(=O)c23)CC1	.	-1%	-0.9%	.	.	.	9%[46.1 µM]	3%
CC(Oc1ccccc1)C(=O)Nc1ccc(S(=O)(=O)Nc2nccs2)cc1 (stereo not given)	-3%	49%[activator]	.	?	10%	-1%	?	.
(listing goes on)
SMILES	NS1 function inh	2A StopGo	Cruzain inh Det	Marburg entry inh	RE007 growth inh	SARS PLpro yeast	Lassa entry inh	Cruzain noTriton
Cc1ccc(C(=O)NNC(=S)NC(=O)COc2ccccc2)cc1	-55%	.	-1.9%	?	-1%	-6%	-10%	11%
CCCN(CC(=O)Nc1ccccc1C)C(=O)c1ccc(-c2ccc(C(C)=O)cc2)o1	.	22%	.	0%	17%	-7%	-17%	.
CCOc1ccc(/C=N/NC(=O)C2CCCC2)c(OCC)c1	-6%	16%	.	2%[46.1 µM]	10%	4%	-25%[46.1 µM]	.
COc1ccc(/C=N/N(Cc2ccccc2)c2ccccc2)cc1O	.	8%	.	23%	0%	-2%	?	.
Cc1ccc(CNS(=O)(=O)c2cnc(N)nc2)cc1	.	4%	-1.5%	.	.	.	-4%[46.1 µM]	-9%
CCOc1ccccc1NC(=O)C1=C(C)Nc2ncnn2C1c1ccccn1 (stereo not given)	.	7%	-1.7%	.	.	.	18%[46.1 µM]	?
CSC1=NCCN1C(=O)Cc1cccs1	?	-12%	-1.0%	.	0%	9%	.	-16%
CC1CCC2(CC1)C(Nc1cccc(Cl)c1)=NC(=S)N2CC#N (stereo not given)	18%	?	-6.4%	13%	-5%	-2%	-3%	-10%
Cc1ccc(C(=O)N/C(=C\c2cn(C)c3ccccc23)C(=O)NCCN2CCOCC2)cc1	3%	-8%	.	-14%[46.1 µM]	11%	.	1%[46.1 µM]	.
Cc1cc(C)c(NC(=O)CN2CCN(c3ccccn3)CC2)c(C)c1	5%	9%	.	?	-7%	8%	5%[46.1 µM]	.
Cc1nnc(SCCCN2C(=O)c3ccccc3C2=O)o1	-8%	22%	2.9%	7%	32%	-2%	2%	0%
